# Cruzain Triton = cruzain (T. cruzi) inhibition with detergent; Potency, µM, for the others: max response, negative = inhibition, usual class: inhibitors; AID 1478; purified cruzain, Z-FR-AMC fluorescence, 0.01% Triton; 200,000 compounds, 0.43% hits; P25779; active = well fitted curve in the direction sought with a large enough effect; inconclusive = small, poorly fitted or top-dose-only effect, or another doubt; inactive = no such curve, though single readings can be large; an effect the other way counts as inactive or inconclusive;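 also: plate controls were neutral wells for no effect and buffer without enzyme for full effect; nearly all actives have a fitted effect of over 40% in size; top concentration of the series not given in the record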
# Target sequence (P25779 123-467 limits assumed): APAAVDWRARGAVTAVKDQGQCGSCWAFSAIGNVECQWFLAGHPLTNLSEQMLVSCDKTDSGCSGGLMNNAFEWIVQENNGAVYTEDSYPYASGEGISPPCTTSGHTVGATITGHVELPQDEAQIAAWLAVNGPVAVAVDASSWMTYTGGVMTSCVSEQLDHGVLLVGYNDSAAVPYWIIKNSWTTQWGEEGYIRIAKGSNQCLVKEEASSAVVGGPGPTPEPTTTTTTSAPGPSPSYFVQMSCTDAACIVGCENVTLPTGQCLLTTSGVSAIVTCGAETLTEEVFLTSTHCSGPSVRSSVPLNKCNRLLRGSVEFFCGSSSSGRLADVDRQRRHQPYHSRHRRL
#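 Read-out: AMC fluorescence (360 nm excitation, 450 nm emission), four reads over 2 min, first-to-third difference used. Conditions: cruzain 1.5 nM, Z-FR-AMC 2 uM, pH 5.5 acetate, 5 mM DTT, 0.01% Triton X-100.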
# NS1 inh = blocks influenza NS1 protein function; S. cerevisiae slowed by influenza A NS1, growth recovery by OD600; Potency, µM (titrated, usually from 46.1 µM), without a hit: top-dose activity, positive = more growth; 270,000 compounds, 0.4% hits; AID 2326; also: actives are rising curves; nearly all actives have a fitted effect of over 50% in size
#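 Read-out: OD600 growth recovery of NS1-expressing budding yeast. Cells grown overnight at 30C in -URA glucose medium, washed, resuspended and diluted 1:100 in 2% galactose assay medium, pH 6.0. Same strain lacking NS1 served as positive control.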
# LASV entry inh = Lassa virus entry inhibition; Lassa virus pseudotype entry inhibition, cell reporter; control for the full effect not named in the record; Potency, µM (top dose mostly 37.9 µM), without a hit: top-dose activity change, negative = inhibition, hits mostly inhibitors; 300,000 compounds, 1.2% hits; AID 540256; active means well fitted inhibition curve with a large enough effect; inconclusive means small, poorly fitted or top-dose-only effect, or effect the other way; inactive means flat fitted curve, though single readings scatter; tested in HEK293 cells; also: % is scaled to controls: 0 for no effect and ±100 for the full control effect; nearly all actives have a fitted effect of over 50% in size; luciferase read-out
# MARV entry inh = Marburg virus entry inhibition | Potency, µM (series often up to 37.8 µM), for the others: at the highest dose activity change, negative = inhibition, hits mostly inhibitors | Marburg virus pseudotyped entry inhibition, cell reporter; control for the full effect not named in the record; about a third of the inactives were read at about 46 µM | AID 540276 | 300,000 compounds, 1.8% hits; active = well fitted inhibition curve with a large enough effect; inconclusive = small, poorly fitted or top-dose-only effect, or effect the other way; inactive = flat fitted curve, though single readings scatter; tested in HEK293 cells; about a fifth of its hits are not listed in these tables; also: % is scaled to controls: 0 for no effect and ±100 for the full control effect; luciferase read-out
# Cruzain inh noDet = blocks cruzain activity in detergent-free assay; 200,000 compounds, 2.3% hits; purified cruzain, Z-FR-AMC fluorescence, no detergent; Potency, µM, without a hit: max response, negative = inhibition, usual class: inhibitors; active = well fitted curve in the direction sought with a large enough effect; inconclusive = small, poorly fitted or top-dose-only effect, or another doubt; inactive = no such curve, though single readings can be large; an effect the other way counts as inactive or inconclusive;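 also: plate controls were enzyme without inhibitor for no effect and buffer without enzyme for full effect; nearly all actives have a fitted effect of over 40% in size; top concentration of the series not given in the record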
#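 Detergent-free condition (0.00005% Triton X-100) in acetate buffer pH 5.5 with DTT. 1.5 nM enzyme and compound were pre-mixed 15 min, then 2 uM Z-FR-AMC substrate added; reaction progress from fluorescence change between first and third reads (60 s).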
# 2A StopGo = lowers the luciferase signal of an FMDV 2A StopGo reporter; human cells with a luciferase reporter of 2A StopGo recoding; control for the full effect not named in the record; Potency, µM (series often up to 57.9 µM), for inactives: top-dose signal change, negative = less light; 410,000 compounds, 1.2% hits; AID 1159524; active = well fitted falling curve with a large enough effect; inconclusive = small, poorly fitted or top-dose-only effect; inactive = no such curve, though single readings can be large or run the other way; tested in HEK293T cells; also: % is scaled to controls: 0 for no effect and ±100 for the full control effect; nearly all actives have a fitted effect of over 45% in size; luciferase light after 4 h
# SARS PLpro yeast = SARS-CoV PLP inhibition in yeast | AID 485353 | 330,000 compounds, 0.19% hits | S. cerevisiae expressing SARS-CoV PLpro, growth rescue; control for the full effect not named in the record | Potency, µM (top dose mostly 32.9 µM), for inactives: top-dose activity, positive = growth rescue; also: 0% is about no effect; nearly all actives have a fitted effect of over 55% in size; growth read by luminescence after 48 h
# RE007 growth inh = less growth of the S. pombe RE007 Vpr strain; AID 651644; 360,000 compounds, 0.21% hits; S. pombe RE007 Vpr strain, BacTiter-Glo ATP luminescence, 24 h; control for the full effect not named in the record; Potency, µM (doses to about 92.2 µM), for the others: at the top dose activity change, negative = less growth; active = well fitted falling curve with a large enough effect; inconclusive = small, poorly fitted or top-dose-only effect; inactive = no such curve, though single readings can be large or run the other way;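 also: % is scaled to controls: 0 for no effect and ±100 for the full control effect; nearly all actives have a fitted effect of over 50% in size; the assay follows cell death caused by Vpr and the record does not say whether a fall means rescue or toxicity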
#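 Fission yeast strain RE007, carrying one chromosomally integrated HIV-1 vpr copy, was seeded at OD 0.01 in PMG+AL medium with 23 nL pinned compound. After 24 h at 30 °C and 99% humidity, viability was read by BacTiter-Glo luminescence.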
# * hit, by the source's call; ? = inconclusive; . = no result given; & = joins results of further samples; [ ] = remark or other dose. Unless noted, calls follow the shape of the dose curve; as a rule, active means well fitted rising curve with a large enough effect; inconclusive means small, poorly fitted or top-dose-only effect; inactive means no such curve, though single readings can be large or run the other way. Potency is read from the fitted curve at half-maximal effect.
SMILES,Cruzain Triton,NS1 inh,LASV entry inh,MARV entry inh,Cruzain inh noDet,2A StopGo,SARS PLpro yeast,RE007 growth inh
O=C(CSc1nncn1-c1ccccc1)NC1CCCC1,.,11.4%,.,.,.,-6.6%,0.3%,4.4%
CCc1nc2sc3c(c2c(=S)[nH]1)CC(C)(C)OC3,.,1.7%,28.1%[46.1 µM],1.9%[46.1 µM],.,9.1%,1.3%,10.9%
CC1CCCCN1CCNC(=O)C1CCCN(S(=O)(=O)c2cccc3nsnc23)C1 (stereo not drawn),.,5.0%,.,.,.,7.8%,-0.9%,-19.4%
Cc1c(NC(=O)CSc2nnc3sc4ccccc4n23)c(=O)n(-c2ccccc2)n1C,-4.2%,3.6%,?,7.7%&26.6%,-18.6%,.,-5.1%,-0.8%
Cc1ccc(-c2cc(NC(=O)c3ccccc3Cl)on2)cc1,-4.9%,.,7.9%[46.1 µM],12.0%[46.1 µM],?,45.1%[activator],.,.
Cc1nnsc1C(=O)NC(C)c1ccccc1 (stereo not drawn),.,.,8.9%[46.1 µM],2.2%[46.1 µM],.,-6.8%,0.2%,-6.1%
Cc1cccc(OCCSc2nc3ccccc3n2CC(=O)N2CCOCC2)c1,-0.3%,.,0.4%[46.1 µM],21.0%[46.1 µM],-4.0%,-15.0%,.,.
O=C(Nc1ccccc1C(F)(F)F)c1ccc2nccnc2c1,.,15.0%,.,.,.,13.4%,7.1%,-16.0%
COCCCn1c2nc3ccccc3nc2c2c(=O)n(Cc3ccc(Cl)cc3)c(C)nc21,0.3%,-0.5%,.,.,?,.,4.1%,.
COc1ccc(-n2cnc3cc(NCc4ccccn4)ccc32)cc1,1.1%,-16.5%,?,-4.2%,-12.5%,35.6%[activator],-2.5%,-16.5%
Cc1ccc2cc(C#N)c(N3CCCN(C(=O)C4CCCO4)CC3)nc2c1 (stereo not drawn),5.9%,-8.0%,-29.2%,1.6%,5.4%,-4.1%,-0.5%,0.9%[3.69 µM]
CCN(C(=O)Cc1c(C(=O)O)c(C)cn1C)c1cccc(Cl)c1,0.9%,.,2.6%[46.1 µM],.,1.8%,-19.6%,.,.
CC(OC(=O)c1cnc2ccccc2n1)c1ccccc1Cl (stereo not drawn),.,-32.7%,-3.1%,?,.,15.1%,-1.8%,29.6%
O=[N+]([O-])c1cc(CN2CCCC2)ccc1Sc1ccc(Cl)cc1,.,-1.0%,?,?,.,-17.5%,-1.2%,0.2%
CS(=O)(=O)N1CCN(C(=O)c2cc(-c3cccnc3)nc3ccc(Cl)cc23)CC1,.,2.3%,10.4%,-20.5%[46.1 µM],.,-17.8%,1.0%,-13.5%
O=C1CN(C(=O)N[C@@H](Cc2ccccc2)C(=O)N[C@@H](Cc2ccccc2)C(=O)O)c2ccccc2N1,.,12.7%,.,.,.,-2.0%,0.2%,2.1%
O=C(CSc1ncnc2sccc12)N1CCN(C(=O)c2cccs2)CC1,.,.,21.3%,0.2%,.,-5.6%,3.1%,11.7%
O=C(Nc1ccccc1C(F)(F)F)N1CCOc2ccc(Cl)cc21,-8.1%,.,?,.,?,-3.6%,.,.
Cc1ccc(C2c3c(oc4ccccc4c3=O)C(=O)N2c2nnc(C)s2)cc1 (stereo not drawn),-1.8%,.,-6.2%[46.1 µM],.,-2.4%,-10.0%,.,.
Cn1c(=O)n(C)c(=O)n(CC(=O)N2CCCCC2)c1=O,-0.7%,2.9%,1.0%,-10.3%,2.2%,-18.3%,2.3%,-2.5%
O=C(CSc1ccccc1)NCc1ccc2c(c1)CCN2C(=O)c1ccccc1,0.2%,.,?,.,3.5%,3.2%,.,.
Cc1ccc(OCC(=O)Sc2ccc(C)cc2)cc1,-7.8%,4.0%,-20.7%,-15.1%,-3.4%,?,3.3%,-18.2%
Cc1nn(-c2ccccc2)c(C)c1NC(=O)COC(=O)c1ccc(S(=O)(=O)C(F)F)cc1,.,.,21.1%[46.1 µM],4.9%,.,-7.2%,0.0%,6.3%
CC(C)c1onc(C(=O)NCc2ccccn2)c1[N+](=O)[O-],.,.,-11.6%[46.1 µM],-11.7%[46.1 µM],.,-3.4%,-3.4%,11.0%
CCOc1ccc(NC(=O)C2CSC(c3ccncc3)=N2)cc1 (stereo not drawn),-0.4%,-5.0%,6.3%,-4.6%,10.1%,-11.0%,-16.7%,4.3%
CCc1ccc(NCc2cc3ccc(OC)cc3n(CC(=O)Nc3ccccc3OC)c2=O)cc1,-5.6%,.,?,.,-21.2%,0.4%,.,.
COc1cc(C(=O)N(CCc2ccccc2)C2CC3CCC(C2)N3C)cc(OC)c1OC (stereo not drawn),-0.2%,-4.9%,12.0%,?,5.5%,-22.8%,9.0%,10.6%
CCN(CC)c1ccc2c(c1)OC(N)=C(C#N)C2c1cccnc1 (stereo not drawn),-0.7%,-37.7%,?,?,2.5%,?,-0.8%,2.1%
CCOc1ccc(Cc2c(Cl)nc(SC)nc2N(C)C)cc1,-6.9%,-15.2%,?,?,0.5%,?,-35.0%,6.4%
COc1cc(-c2nc3n(n2)C(c2cccc(OC)c2OC)C2=C(CCCC2=O)N3)cc(OC)c1OC (stereo not drawn),1.3%,-0.2%,7.4%,-13.7%&-13.7%,?,-6.8%,-0.9%,11.3%
Nc1ccc(OCc2ccco2)cc1,.,.,2.4%[46.1 µM],?,.,16.3%,4.2%,2.5%
CCC(=O)Nc1nnc(S(=O)(=O)N2CCCc3ccccc32)s1,.,11.9%,.,.,.,-8.1%,2.7%,-12.4%
O=C(NC(=S)NNC(=O)c1cnccn1)c1ccc(Cl)cc1,.,4.1%,-21.7%,-15.3%[46.1 µM],.,23.8%,2.2%,29.7%
Cc1nnc(NC(=O)c2nn(CC(C)C)c(=O)c3ccccc23)s1,.,.,19.8%,-28.6%[46.1 µM],.,-18.2%,-5.8%,28.9%
Cc1ccccc1NC(=O)CC1(c2ccc(N(C)C)cc2)C(=O)c2ccccc2C1=O,-3.5%,-13.2%,?,-25.8%,-1.9%,-15.0%,-9.3%,0.6%
CC(CCCC(C)(C)O)NCCO (stereo not drawn),-1.2%,0.1%,1.4%,17.2%,-11.1%,.,2.9%,1.4%
O=C(CCN1C(=O)/C(=C\c2ccccc2Cl)SC1=S)Nc1cccnc1,.,19.5%,15.5%,17.6%,.,?,12.9%,7.6%
Cc1csc(NC(=O)c2c(-c3ccccc3)noc2C)n1,.,10.4%,.,18.0%[46.1 µM],.,-23.8%,1.0%,30.8%
O=C(CN1C(=O)CC(c2ccco2)Sc2ccccc21)Nc1ccc(Br)cc1 (stereo not drawn),-4.5%,.,.,7.5%[46.1 µM],?,-21.2%,.,.
COC(=O)C1CCN(c2ccc(C(N)=O)cc2[N+](=O)[O-])CC1,-2.9%,0.7%,-30.0%,16.4%,2.9%,-17.5%,-5.4%,17.6%
O=C(Cc1ccccc1F)Nc1nc(-c2ccc(F)cc2)cs1,.,-35.7%,4.47µM*,?,.,33.3%[activator],-6.8%,-11.8%
C=CCn1c(O)c(C(C)=NCCN2CCOCC2)c(=O)[nH]c1=O,-0.2%,2.0%,1.4%,-3.2%,-13.7%,12.1%,-1.3%,23.4%
CCS(=O)(=O)N1CCC(NC(=O)c2cc(OC)cc(OC)c2)CC1,2.9%,5.2%,18.1%,-1.2%,-0.7%,.,-0.1%,5.7%
O=C(CCN1C(=O)C2C3C=CC(C4CC34)C2C1=O)Oc1ccc(Br)cc1 (stereo not drawn),.,.,16.5%[46.1 µM],?,.,-0.3%,-2.2%,9.6%
CC(=O)c1cccc(N(CC(=O)NC2CCCCC2)C(=O)Cn2nnc(-c3ccccc3)n2)c1,.,0.5%,?,4.1%[46.1 µM],.,32.6%[activator],3.1%,1.7%
CNS(=O)(=O)c1ccc(N2CCCC2=O)c([N+](=O)[O-])c1,-1.5%,-2.4%,?,?,2.7%,-8.1%,-4.4%,4.2%
CCc1[nH]c(=O)c(C#N)c2c1CSC(C)(C)C2,-7.2%,-1.7%,2.0%,?,-14.2%,16.4%,-7.1%,2.3%
COCC1CCN(Cc2cn[nH]c2-c2cc3ccccc3o2)C1 (stereo not drawn),.,4.3%,1.8%[46.1 µM],-14.8%[46.1 µM],.,-10.3%,-0.5%,1.1%
CCOC(=O)N1CCC(NC(=O)c2ccc(CS(=O)(=O)c3ccc(OC)cc3)o2)CC1,1.1%,-14.3%,.,.,-2.3%,1.7%,2.5%,24.1%
CC(=O)Nc1ccccc1C(=O)C(=O)Nc1ccc(C(=O)NCC2CCCO2)cc1 (stereo not drawn),.,.,-6.9%,-1.3%[46.1 µM],.,-8.8%,2.1%,10.8%
COc1ccc(N2CCN(C(=O)CN(c3cccc(OC)c3)S(=O)(=O)c3ccccc3)CC2)cc1,.,-8.8%,?,-2.4%,.,0.1%,?,-10.4%
CCn1cnc2c1c(=O)n(CC(=O)Nc1ccc(C(N)=O)cc1)c(=O)n2Cc1ccccc1,.,-2.0%,.,.,.,-4.6%,6.2%,0.7%
CC1=C(C(=O)OC(C)C)C(c2cccc([N+](=O)[O-])c2)n2c(cc(=O)[nH]c2=S)N1 (stereo not drawn),-9.8%,11.2µM*,10.1%,3.8%,0.7%,-24.2%,2.3%,28.5%
S=c1[nH]nc(-c2cccnc2)n1/N=C/c1cccs1,3.0%,13.8%,-9.5%,-7.8%,2.5%,-11.2%,7.3%,2.1%
CCC(=O)Nc1cc(C(=O)O)ccc1Sc1ccccc1,.,.,4.4%[46.1 µM],10.9%[46.1 µM],.,-5.2%,-3.2%,9.0%
CCOc1ccc(NC(=O)CC2C(=O)N(c3cccc(C)c3)C(=O)N2Cc2ccco2)cc1 (stereo not drawn),-4.3%,.,-22.1%[46.1 µM],.,-5.4%,3.0%,.,.
COc1ccc(Nc2nn(-c3ccc(OC(F)(F)F)cc3)nc2C(C)=O)cc1,1.0%,.,?,13.2%[46.1 µM],-1.0%,9.6%,.,.
CCc1cccc(CC)c1NC(=O)CN1CCN(S(=O)(=O)c2ccccc2)CC1,.,-9.5%,0.7%,-18.3%,.,0.0%,-3.6%,1.8%

# Screening results: PubChem BioAssay, National Center for Advancing Translational Sciences (NCATS)
